gsp antag – qHTS for Antagonists of gsp, the Etiologic Mutation Responsible for Fibrous Dysplasia/McCune-Albright Syndrome: qHTS; gsp-mutant cells, cAMP HTRF, 30 min; control for the full effect not named in the record; Potency, µM (series often up to 76.9 µM), for the others: top-dose activity change, negative = inhibition, usual class: inhibitors; hit rate 0.4% among 340,000; AID 624288, 2012; active = falling curve of any shape with a large fitted effect; inconclusive = falling curve, mostly with a smaller effect; inactive = flat or rising curve; cell line not stated here;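 further: intracellular cAMP measured with PDE inhibitor Ro 20-1724 present during compound exposure; potency means the concentration at half of the fitted maximal effect; on the % scale 0 is the no-effect control and ±100 the full control effect; nearly all actives have a fitted effect of over 65% in size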
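Cells, 2000/well, grown 16–24 h in DMEM 10% FBS with 0.5 mg/ml G418, then compounds plus […] (300 uM addition stock), 30 min at 37C. cAMP read by HTRF (cAMP-d2 and anti-cAMP antibody-K in lysis buffer) after 30 min RT.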
Menin MLL FP FL – qHTS Assay for Inhibitors Targeting the Menin-MLL Interaction in MLL Related Leukemias: Competition With Fluorescein Labeled MLL-derived Peptide; Fluorescence polarization, fluorescein-MLL peptide displacement from menin; FP activity change, % at 61.4 µM; 290,000 tested, under 10 active; inconclusive = falling polarisation curve, or a change in total fluorescence; inactive = total fluorescence flat and polarisation flat or rising; no compound was filed as active; the % refers to the polarisation; negative = inhibition;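 further: % of control where 0% means no effect; inhibitors lower the polarisation; unlabelled MLL peptide was the positive control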
gsp agonist – qHTS for Agonist of gsp, the Etiologic Mutation Responsible for Fibrous Dysplasia/McCune-Albright Syndrome: qHTS; gsp mutant cells, cAMP HTRF, 30 min; control for the full effect not named in the record; Potency, µM (doses to about 76.9 µM), for the others: top-dose activation (cAMP increase), usual class: activators; hit rate 0.13% among 340,000; active = well fitted activation curve with a large enough effect; inconclusive = small, poorly fitted or top-dose-only effect, or another doubt; inactive = no such curve, though single readings can be large or run the other way; cell line not stated here;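 further: phosphodiesterase inhibitor Ro 20-1724 added with compounds to block cAMP breakdown; potency means the concentration at half of the fitted maximal effect; nearly all actives have a fitted effect of over 60% in size; about a fifth of the inactives were tested at one dose only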
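Cells in DMEM/10% FBS with G418 were pretreated with compounds in DMSO plus […] (300 uM stock) for 30 min at 37C. cAMP was measured by HTRF (cAMP-d2 plus anti-cAMP antibody-K) after 30 min at room temperature.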
TRPML1 inh – qHTS for Inhibitors of the Human Mucolipin Transient Receptor Potential 1 (TRPML1). TRPML1-inducible cells, Ca2+ dye fluorescence, FDSS; stronger effect = lower value; inhibition of EC80 agonist-evoked calcium signal. Mucolipin-1 (Homo sapiens), Q9GZU1. activity change, negative = inhibition, % (no concentration beside the values). hit rate 0.02% among 390,000; in the data active means activity change below about -50%; inconclusive means about -30% to -50%; inactive means above about -30%;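 further: stimulus is agonist 54-4 at its EC80 concentration; on the % scale 0 is the no-effect control and ±100 the full control effect; compound concentration not given in the record; the text of the record puts the active cut at -80%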
Target sequence (Q9GZU1 whole entry, looked up): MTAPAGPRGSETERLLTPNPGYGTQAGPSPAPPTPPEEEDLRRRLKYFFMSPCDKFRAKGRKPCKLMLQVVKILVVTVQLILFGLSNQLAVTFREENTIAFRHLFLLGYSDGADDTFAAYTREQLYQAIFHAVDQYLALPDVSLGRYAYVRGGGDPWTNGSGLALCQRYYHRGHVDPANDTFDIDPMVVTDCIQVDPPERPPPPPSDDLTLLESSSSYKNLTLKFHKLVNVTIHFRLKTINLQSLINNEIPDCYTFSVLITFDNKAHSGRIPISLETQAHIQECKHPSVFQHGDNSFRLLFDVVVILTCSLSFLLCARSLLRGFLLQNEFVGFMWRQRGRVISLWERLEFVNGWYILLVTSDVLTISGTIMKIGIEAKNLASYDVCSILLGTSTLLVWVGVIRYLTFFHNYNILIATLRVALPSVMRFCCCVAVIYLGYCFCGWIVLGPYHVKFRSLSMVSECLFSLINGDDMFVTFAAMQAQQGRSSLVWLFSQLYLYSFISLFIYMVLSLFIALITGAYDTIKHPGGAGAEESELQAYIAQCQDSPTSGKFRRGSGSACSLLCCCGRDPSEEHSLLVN
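Calcium fluorescence in TRPML1-DL cells induced overnight with Tet: a 110 s read after compound pin addition, then a 110 s antagonist read after challenge with 54-4 at 4 uM final (EC80).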
ClpP mod – qHTS Assay for Activators of ClpP. Potency, µM (highest dose often 57.5 µM), without a hit: at the top dose activity change, negative = active. hit rate 1.9% among 340,000. AID 651965, 2013. purified B. subtilis ClpP, FRET peptide cleavage, 20 min. ATP-dependent Clp protease proteolytic subunit (Bacillus subtilis (strain 168)), P80244; active = well fitted falling curve with a large enough effect; inconclusive = small, poorly fitted or top-dose-only effect; inactive = no such curve, though single readings can be large or run the other way; further: potency means the concentration at half of the fitted maximal effect; the source files actives as falling curves though it sought activators and does not explain the sign; nearly all actives have a fitted effect of over 65% in size; many hits overshoot -100%
Target sequence (P80244 whole entry, looked up): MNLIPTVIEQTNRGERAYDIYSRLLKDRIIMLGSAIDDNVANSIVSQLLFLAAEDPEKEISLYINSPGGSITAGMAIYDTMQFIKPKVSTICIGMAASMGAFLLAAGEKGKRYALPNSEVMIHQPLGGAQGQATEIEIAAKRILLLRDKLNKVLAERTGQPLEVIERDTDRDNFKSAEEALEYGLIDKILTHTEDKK
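ClpP 10 microg/mL final, pH 8 Tris/KCl buffer with BSA, glycerol, Tween-20; compound pinned in; FRET-FV substrate; RT 20 min; Ex320/Em430; ΔFRET vs ADEP 5.8 microM, DMSO, no enzyme.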
TRPML1 agonist – qHTS for Agonists of the Human Mucolipin Transient Receptor Potential 1 (TRPML1) | AID 624414, 2012 | hit rate 0.12% among 410,000 | Mucolipin-1 (Homo sapiens), Q9GZU1 | activation, % (test concentration not listed) | TRPML1-expressing cells, Ca2+ dye fluorescence, FDSS; host cell line not named in the record; reference of the full effect not given here; in the data active = activation above about 50%; inconclusive = about 30% to 50%; inactive = below about 30%; further: 0% is about no effect; the text of the record puts the active cut at 80%
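Kinetic FDSS Ca2+ read in Tet-induced TRPML1-DL cells (ABD Ca8 dye plus quencher, 45-90 min RT loading): baseline, then compound, then 110 s agonist window; EC80 agonist 54-4 at 4uM final added afterwards for a 110 s antagonist window.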
Active calls of the source: *; ? = inconclusive; / = not tested or not shown; & = joins results of further samples; [ ] = another dose, or the depositor's remark.

SMILES	gsp antag	Menin MLL FP FL	gsp agonist	TRPML1 inh	ClpP mod	TRPML1 agonist
COc1ccc(C2CC(=O)c3cnc(NC(=O)c4cccc(OC)c4)nc3C2)cc1 (centres undefined)	-5.4%	-0.2	-20.5%	10.4	0.3%	0.5
Cc1ccccc1CNC(=O)C1CCC(=O)N(CC2CCCCC2)C1 (centres undefined)	14.4%	/	-2.6%[15.4 µM]	-6.7	1.6%	0.5
Cc1nn(CCC(=O)NNC(=S)Nc2ccc([N+](=O)[O-])cc2)c(C)c1[N+](=O)[O-]	-1.5%	0.0	-33.3%[inhibitor]	-4.2	-0.6%	1.5
Cc1ccc(C)c(-c2nn(-c3cc(N4CCN(CCO)CC4)ccc3[N+](=O)[O-])c(=O)c3ccccc23)c1	4.0%	-1.1	-17.7%	-7.6	-3.8%	5.2
O=C(CCCOc1ccc(Cl)cc1Cl)Nc1nnc(C2CC2)s1	11.1%	/	-5.1%	3.4	-4.0%	0.1
CCOC(=O)N1CCN(C(=O)c2nn(-c3ccc(C)cc3)c(=O)c3c2c2ccccc2n3C)CC1	-0.7%	4.2	-20.7%	0.0	16.5%	-0.9
Cc1ccc(Nc2nc(N/N=C/c3c[nH]c4ccccc34)nc(N3CCOCC3)n2)cc1	39.8µM*	4.2	0.9%[15.4 µM]	4.0	-2.1%	0.7
COC(=O)C(C)Sc1nc2c(cnn2-c2ccc(F)cc2)c(=O)[nH]1 (centres undefined)	2.2%	-5.5	4.6%	14.9&-2.9	-0.9%&-1.9%	1.5&-0.4
O=C(Nc1ccc(Cl)c(Cl)c1)c1ccccc1NC(=O)C1CC=CCC1C(=O)O (centres undefined)	-28.5%	/	1.8%	4.1	-3.0%	-0.2
COc1cc(C(=O)N2CCN(C(=O)c3cc(-c4ccccc4)n[nH]3)CC2)cc(OC)c1OC	-21.2%	-0.9	-15.9%	-10.9	-0.9%	0.9
CCCCNC(=O)Nc1nnc(SCC(=O)OCC)s1	-11.1%	5.0	?	10.3	-2.7%	1.0
CCOc1ccc(Br)cc1S(=O)(=O)NCc1ccncc1	-1.7%	-2.9	11.8%[15.4 µM]	26.5	/	-0.1
COC(=O)c1cc(C(=O)N2CCN(c3cccc(C)c3C)CC2)cc([N+](=O)[O-])c1	20.8%	-1.5	-2.2%[15.4 µM]	-5.3	/	-0.9
Cc1ccc(S(=O)(=O)N(C)CC(=O)N2CCCCCC2)cc1	1.7%	-0.6	-10.3%	/	0.5%	/
CCCS(=O)(=O)N1CCCC(C(=O)NCc2ccco2)C1 (centres undefined)	7.0%	2.6	?	-1.5	-1.0%	-0.6
Cc1ccc(OCCOCCn2c(-c3ccc(Cl)cc3)nc3ccccc3c2=O)cc1	/	/	/	-0.5	-0.1%	-0.6
CC1(C)C(c2ccco2)=[N+]([O-])C2(CCCCC2=O)N1O (centres undefined)	-13.2%	2.6	-3.9%	2.6	3.2%	-0.2
CCc1ccc(OCC(=O)NCC(c2ccc(OC)cc2)N2CCOCC2)cc1 (centres undefined)	/	/	/	-22.5	-0.5%	0.3
CN(C)C(CNC(=S)Nc1cccc(Cl)c1)c1ccccc1 (centres undefined)	14.4%	-11.5	-3.5%[15.4 µM]	-6.9	0.6%	0.0
O=C(c1cnn2c(C(F)F)cc(-c3ccccc3)nc12)N1CCc2ccccc2C1	?	-2.4	-3.1%[15.4 µM]	-2.8	/	58.5*
O=C(N/N=C/c1cc([N+](=O)[O-])ccc1O)c1ccc2c(c1)OCCO2	?	-27.1	3.0%	-15.8	0.4%	0.7
COc1ccccc1CCc1nnc(CCC(=O)NCC2CCCO2)o1 (centres undefined)	8.4%	/	-2.4%	2.3	1.3%	-0.9
CC(c1ccccc1C(O)c1ccccc1)N(C)C (centres undefined)	8.0%	4.8	-3.8%	4.0	1.5%	0.7
CN(Cc1ncc[nH]1)Cc1cn(-c2ccccc2)nc1-c1ccc2c(c1)OCO2	-2.7%	4.3	?	-8.3	3.2%	2.4
COc1ccccc1C1CC(=O)Oc2cc(O)ccc21 (centres undefined)	7.5%	-3.0[94.6 µM]	/	-1.6	2.0%	-0.3
C=CCSc1nc2ccccc2[nH]1	1.8%	0.5	16.8%	-0.9	-1.7%	-0.7
N#C/C(=C1\C(=O)Nc2c(Cl)cc(Cl)cc21)c1nnc2n1CCCCC2	5.0%	-1.4	10.4%	7.6	53.9%	-0.7
CC(C)(C)NC(=O)CSc1nnc(NC(=O)CCc2ccccc2)s1	4.0%	0.0	-0.5%	6.2	-1.4%	0.3
Cn1cc(C(=O)O)c(=O)c2cc(S(=O)(=O)N3CCOCC3)ccc21	/	/	/	46.3	-3.9%	6.9
CCC1=C2CC[C@H]3C(=O)N(c4ccccc4)C(=O)[C@H]3[C@H]2[C@@]2(C)C(=NCC(=O)OC)OC(=O)N2C1=O	7.0%	-0.3&-0.2	/	12.1	-1.3%	0.5
Cc1ccc(C(C)C)c(OCCN(C)C)c1	-8.1%	-1.8	-15.7%	-5.8	-0.5%	1.1
COc1ccc(-n2nc3c(N4CCC(C(=O)NCCc5ccccc5C)CC4)nnc(C)c3c2C)cc1	-1.6%	/	?	27.4	/	1.6
Nc1nnc(SCc2ccc(Cl)cc2)s1	-4.5%	-1.6	-28.8%	6.0	0.8%	0.8
Cc1ccccc1NS(=O)(=O)c1nnc(NC(=O)c2ccco2)s1	/	/	/	0.5	-0.3%	-0.8
Cc1cccc(N2N=C(C(=O)Nc3ccc(Cl)c(S(=O)(=O)N4CCOCC4)c3)CCC2=O)c1	-4.1%	/	-76.9%[inhibitor]	-9.7	1.5%	0.8
O=[N+]([O-])c1ccc(S(=O)(=O)NN=CCCc2ccccc2)cc1	0.5%	/	-2.7%[15.4 µM]	-7.7	-1.9%	-0.4
Cc1nc(Cc2ccccc2)sc1CC#N	11.1%	/	?	1.6	/	1.0
CCc1ccc(NC(=O)C(=O)NCC(c2cccnc2)N2CCOCC2)cc1 (centres undefined)	/	/	/	9.5	-0.7%	0.1
COc1cccc(NC(=O)N2CCOCC2)c1	2.2%	6.6	7.2%	9.4	-20.8%	0.9
CCN(CC)CCCNc1nc(N)c([N+](=O)[O-])c(N2CCCCCC2)n1	2.6%	-2.3	3.3%	14.4	/	1.7
O=C(COC(=O)c1ccc(O)cc1)Nc1cccc(S(=O)(=O)N2CCCCC2)c1	?	10.0	-1.5%[15.4 µM]	20.0	/	1.7
O=C(OCC(=O)N1CCCC1=O)c1nc(Cl)ccc1Cl	4.6%	/	?	13.5	-1.9%	0.6
Cc1cccc(CN2[C@@H](CC(C)C)COCCS2(=O)=O)c1	8.3%	/	-2.7%	-2.6	-2.2%	2.3
Cc1ccccc1-c1nc(CNC(=O)Nc2ccccc2)c(C)o1	/	/	/	11.8	-3.8%	2.4
Cc1cccc2cc3c(N)c(C(=O)N4CCc5ccccc54)sc3nc12	7.6%	?	0.3%	-24.8	-5.4%	11.1
CCN1CCN(c2nnc(-n3cccc3C(=O)NCc3ccccc3OC)s2)CC1	/	/	/	-10.4	-3.6%	0.2
COc1ccc(C(=O)N2CC(=O)Nc3ccc(C)cc3C2c2ccccc2)c(OC)c1 (centres undefined)	/	/	/	-18.9	-0.7%	-0.1
CCOC(=O)CCCCCN(Cc1ccccc1)S(=O)(=O)c1ccc([N+](=O)[O-])cc1	0.8%	5.2	19.2%	75.9	17.7%	0.5

Arranged by value in gsp antag (rising): some entries from above.
smiles,gsp antag,Menin MLL FP FL,gsp agonist,TRPML1 inh
Cc1ccc(C(C)C)c(OCCN(C)C)c1,-8.1%,-1.8,-15.7%,-5.8
CCN(CC)CCCNc1nc(N)c([N+](=O)[O-])c(N2CCCCCC2)n1,2.6%,-2.3,3.3%,14.4
Cc1nc(Cc2ccccc2)sc1CC#N,11.1%,/,?,1.6

More records:
SMILES	gsp antag	Menin MLL FP FL	gsp agonist	TRPML1 inh	ClpP mod	TRPML1 agonist
CC(C)COC(=O)N(C)C[C@H]1OCc2cn(nn2)CCCC(=O)N([C@H](C)CO)C[C@@H]1C	/	/	-27.7%	13.6	0.3%	0.1
CCc1nn2c(-c3ccco3)ccnc2c1-c1ccc(F)cc1	/	/	/	9.5	-0.3%	-0.5
COc1ccc(/C=C/C(=O)Nc2ccc(S(=O)(=O)Nc3onc(C)c3C)cc2)cc1OC	1.8%	0.8	16.6%	-22.7	-15.7%	0.7
COC(=O)c1c(NC(=O)COC(=O)CCNS(=O)(=O)c2ccc(NC(C)=O)cc2)sc(C)c1C	-3.3%	/	?	5.5	0.5%	-0.1
COC(=O)c1c(C)cccc1C1CN=NC12Cc1ccccc1C2=O (centres undefined)	8.9%	/	?	-19.6	-0.7%	112.9*
Oc1ccc(C=NN=Cc2ccco2)c(O)c1	-10.1%	/	8.0%	18.1	3.1%	3.4
COC(=O)c1sccc1S(=O)(=O)N1CCN(c2ccc(C(C)=O)cc2)CC1	/	/	/	-6.7	-8.4%	1.0
COCCNC(=O)c1ccc(N2CC3CC(C2)c2cccc(=O)n2C3)c(NC(=O)c2cc(OC)cc(OC)c2)c1 (centres undefined)	-2.1%	/	-2.7%	-9.1	-2.7%	-0.1
CCN(CC)Cc1cc(C(=O)O)c(C)o1	-1.5%	0.0	-12.2%	-1.9	/	-0.2
CCN1C(=O)[C@H]2[C@@H](c3ccc(C)cc3)N3C(=O)N(c4ccc(C(F)(F)F)cc4)C(=O)[C@@]3(CC(C)C)[C@H]2C1=O	-3.5%	-2.9	14.9%	-8.7	0.4%	1.3
CC(=O)c1ccc(Nc2cc(C)nc3nc(C)nn23)cc1	-4.9%	1.4	0.0%	-11.7	-3.4%	-0.1
CCCOc1ccc(-c2c(C(=O)N/N=C(\C)c3ccco3)nnn2-c2nonc2N)cc1	2.4%	2.4	-23.4%	-12.7	-7.5%	0.2
CC(C)(O)C#Cc1ccc(C(=O)N2CCC(C(N)=O)(N3CCCCC3)CC2)cc1	6.3%	3.6	9.2%	-9.6	-0.6%	0.2
C=CCNC(=S)NN=C1CCCCCCC1	7.9%	1.4	-39.1%[inhibitor]	-13.1	0.3%	0.0

Source: PubChem BioAssay
